Vaccinia stage: blocks a specific stage of Vaccinia orthopoxvirus infection. AID 1053133. Vaccinia-infected cells, mCherry/Venus stage reporter fluorescence; active compounds read low; some inactives read as strong as hits. 0.01% of 89,000 active. activity change (mCherry), % (concentration not given with the values);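 active = mCherry past -33% and 40 or more points under the early reporter, replicates agreeing; inconclusive = past -33% without that gap or agreement; tested in A549 cells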;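 note: scaled between vehicle wells and reference inhibitor wells; 23 nL library stock went into each well; one replicate is shown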
Vaccinia stage Venus: further read-out of Vaccinia stage, marked with its call; activity change (Venus), %; measured here: Venus reporter, other viral stage;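 negative = less Venus signal; first of two replicates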
The depositor's hits bear a star; ? = inconclusive; . = not tested or not shown. This is a subset; rates above refer to the full screens.

SMILES | Vaccinia stage | Vaccinia stage Venus
C[C@@H]1CN([C@H](C)CO)C(=O)Cc2cc(NC(=O)Cc3ccccc3)ccc2O[C@H]1CN(C)Cc1ccc2c(c1)OCO2 | -2.9 | -6.0
C[C@H](CO)N1C[C@H](C)[C@H](CN(C)S(=O)(=O)c2cccs2)Oc2ncc(/C=C/c3ccccc3)cc2C1=O | -31.6 | -30.3
C[C@H](CO)N1C[C@H](C)[C@H](CN(C)C(=O)Nc2ccc(C(F)(F)F)cc2)Oc2c(NS(=O)(=O)c3ccc(Cl)cc3)cccc2C1=O | -35.0 | -25.4
O=C(Nc1ccccc1F)N[C@@H]1CC[C@@H](CCNC(=O)C2CCCCC2)O[C@H]1CO | -4.9 | 1.7
C/C=C/c1ccc([C@H]2[C@@H](CO)N(C(=O)C3CCC3)C23CN(S(=O)(=O)CC)C3)cc1 | 7.2 | 2.8
C[C@H]1CCCCO[C@@H](CN(C)C(=O)c2ccccc2)[C@@H](C)CN([C@@H](C)CO)C(=O)c2cc(NC(=O)Cc3ccccc3)ccc2O1 | ? | .
O=C(c1ccc2c(c1)OCO2)N1CC2(C1)[C@H](c1ccccc1)[C@H](CO)N2C(=O)C1CCC1 | 5.2 | 8.2
CCCNC(=O)N1[C@@H](C#N)[C@@H](c2ccccc2)[C@@H]1CO | 3.4 | 4.8
COc1ccc(NC(=O)N(C)C[C@@H]2Oc3ccc(NS(=O)(=O)c4cccs4)cc3C(=O)N([C@@H](C)CO)C[C@H]2C)cc1 | 7.1 | 4.9
COc1ccc2c3c([nH]c2c1)[C@@H](CO)N(S(C)(=O)=O)CC31CN(C(=O)Nc2ccccc2)C1 | 14.8 | 11.3
COc1ccc(S(=O)(=O)N(C)C[C@@H]2OCCCC[C@@H](C)Oc3ccc(NC(=O)Nc4ccc(F)cc4)cc3C(=O)N([C@@H](C)CO)C[C@@H]2C)cc1 | -2.6 | 9.4
C[C@@H]1CN([C@H](C)CO)C(=O)c2cccc(NC(=O)Nc3ccc(C(F)(F)F)cc3)c2O[C@@H]1CN(C)Cc1ccc(Oc2ccccc2)cc1 | ? | .
C[C@@H]1CCCCO[C@@H](CN(C)C(=O)CCC(F)(F)F)[C@@H](C)CN([C@@H](C)CO)C(=O)c2cc(NS(=O)(=O)c3cn(C)cn3)ccc2O1 | 7.6 | 3.3
CCC(=O)Nc1ccc2c(c1)OC[C@@H](C)NC[C@H](C)[C@H](OC)CN(C)C2=O | -0.3 | -1.2
O=C(C[C@@H]1CC[C@H](NC(=O)C2CCC2)[C@@H](CO)O1)NC1CCC1 | -4.8 | 12.0
C[C@H](CO)N1C[C@H](C)[C@H](CN(C)S(=O)(=O)c2ccc(Cl)cc2)Oc2ccc(NC(=O)Nc3ccc(F)cc3)cc2C1=O | -31.7 | -27.1
CO[C@@H]1CN(C)C(=O)c2ccc(NC(=O)Nc3ccc(Cl)cc3)cc2OC[C@@H](C)N(C(=O)Nc2c(C)noc2C)C[C@H]1C | 1.0 | -3.3
CCCNC(=O)N1CC2(C1)CN(C(=O)NC1CCCC1)[C@H](CO)c1[nH]c3cc(OC)ccc3c12 | 21.0 | 10.1
COc1ccc2c3c([nH]c2c1)[C@@H](CO)N(C(=O)CN1CCOCC1)CC31CN(C(C)=O)C1 | 21.6 | 7.4
C[C@H]1CCCCO[C@@H](CN(C)C(=O)C2CCCCC2)[C@@H](C)CN([C@@H](C)CO)C(=O)c2cc(NS(C)(=O)=O)ccc2O1 | 2.0 | -0.3
COc1ccc2c3c(n(C)c2c1)[C@@H](CO)N(C(=O)c1ccccn1)CC31CN(C(=O)Cc2ccccc2)C1 | -7.2 | -14.0
C[C@H](CO)N1C[C@H](C)[C@H](CN(C)Cc2ccccc2)OCCCC[C@H](C)Oc2ccc(N(C)C)cc2C1=O | -9.1 | -0.6
CC=Cc1ccc2n(c1=O)C[C@H]1[C@H](CO)[C@@H](C(=O)NCCc3cn(C)cn3)[C@@H]2N1C(=O)C1CC1 (mixture of isomers) | 19.9 | 3.4
CN(C)CC(=O)N1[C@@H]2c3ccc(-c4cccc(F)c4)c(=O)n3C[C@@H]2[C@@H](CO)[C@@H]1C(=O)NC1CCC1 | 8.9 | -0.2
O=C(Nc1ccc(F)cc1)N[C@H]1CC[C@@H](CCNC(=O)c2ccccc2F)O[C@H]1CO | -6.8 | 3.7
Cn1cnc(S(=O)(=O)N2CC[C@@H]3[C@H](CO)Nc4ccc(-c5ccc(F)cc5)cc4[C@@H]32)c1 | -0.7 | -6.8
C[C@@H]1CN([C@@H](C)CO)C(=O)c2cc(NS(=O)(=O)c3cccs3)ccc2O[C@@H](C)CCCCO[C@H]1CN(C)CC1CCCCC1 | ? | .
COc1ccc(S(=O)(=O)Nc2cccc3c2O[C@@H](CN(C)C(=O)NC(C)C)[C@@H](C)CN([C@@H](C)CO)C3=O)cc1 | 13.4 | 5.0
O=C(Cc1cccnc1)N1CC(=O)N2[C@H](CO)[C@@H](c3ccc(C#CC4CC4)cc3)[C@@H]2C1 | -22.2 | -17.5
CO[C@@H]1CN(C)C(=O)c2ccc(NS(C)(=O)=O)cc2OC[C@@H](C)N(CC2CCOCC2)C[C@H]1C | 5.5 | 3.9
[N-]=[N+]=NCc1ccccc1C[C@]1(C(=O)NCC(O)CO)N=C(c2ccc(OCCCO)cc2)O[C@H]1c1ccccc1 (stereo not given in full) | -23.2 | -14.4
CC(=O)N1[C@@H](CO)[C@H](c2ccccc2)[C@@H]1CN(CC(C)C)C(=O)c1ccccn1 | 7.7 | 6.3
O=C(Nc1ccccc1)N1C[C@H]2[C@@H](c3ccccc31)[C@H](CO)N2Cc1ccccc1 | 3.9 | 2.7
O=C(Nc1ccc2c(c1)[C@@H]1C[C@@H](CC(=O)N3CCCCC3)O[C@H](CO)[C@@H]1O2)Nc1ccccc1F | 22.6 | 14.0
O=C(Nc1ccc(Cl)c(Cl)c1)N[C@H]1CC[C@@H](CCn2cc(C3CCCC3)nn2)O[C@@H]1CO | -9.0 | -2.6
C[C@H](NC(=O)[C@H]1[C@H](CO)[C@H]2Cn3c(cccc3=O)[C@H]2N1C(=O)C1CC1)c1ccccc1 | 11.6 | 9.1
O=C(C[C@H]1CC[C@H](NC(=O)Nc2cc(F)ccc2F)[C@H](CO)O1)NCc1ccncn1 | 8.4 | 8.6
COc1ccc(NC(=O)Nc2ccc3c(c2)C(=O)N([C@@H](C)CO)C[C@H](C)[C@@H](CN(C)C(=O)Nc2cccc4ccccc24)O3)cc1 | 14.5 | 18.7
C[C@H](CO)N1C[C@H](C)[C@H](CN(C)S(C)(=O)=O)Oc2ccc(NS(=O)(=O)c3cn(C)cn3)cc2CC1=O | 4.6 | -1.3
C[C@@H]1CN([C@@H](C)CO)S(=O)(=O)c2ccc(-c3ccccc3)cc2O[C@H]1CN(C)CC1CCCC1 | -10.7 | -8.3
C[C@H]1CN([C@@H](C)CO)C(=O)CCCn2cc(nn2)CO[C@@H]1CN(C)S(=O)(=O)c1cn(C)cn1 | 6.4 | 6.4
C[C@@H]1CN([C@H](C)CO)C(=O)CCCn2cc(nn2)CO[C@@H]1CN(C)C | 11.7 | 4.7
COc1ccc(NC(=O)Nc2ccc3c(c2)C(=O)N([C@@H](C)CO)C[C@H](C)[C@@H](CN(C)Cc2ccc(C(=O)O)cc2)OCCCC[C@@H](C)O3)cc1 | 27.1 | 15.0
Cc1noc(C)c1NC(=O)Nc1ccc2c(c1)CC(=O)N([C@H](C)CO)C[C@@H](C)[C@@H](CN(C)C(=O)Nc1ccc3c(c1)OCO3)O2 | 1.0 | 8.3
COc1ccc(S(=O)(=O)Nc2ccc3c(c2)C(=O)N([C@H](C)CO)C[C@H](C)[C@@H](CN(C)S(=O)(=O)c2cn(C)cn2)O3)cc1 | 8.9 | 7.9
COc1ccc(CN(C)C[C@H]2Oc3ccc(NS(=O)(=O)c4c(C)noc4C)cc3CC(=O)N([C@H](C)CO)C[C@@H]2C)cc1 | -11.1 | -12.1
O=S(=O)(NCC[C@@H]1CC[C@@H](NS(=O)(=O)c2cccc(F)c2)[C@H](CO)O1)c1cccc(F)c1 | 7.6 | 3.6
CO[C@H]1CN(C)C(=O)c2cc(NC(C)=O)ccc2OC[C@@H](C)N(Cc2ccccc2C(=O)O)C[C@H]1C | 37.1 | 26.6
COc1ccc(NC(=O)N(C)C[C@H]2Oc3ccc(NC(=O)CCN4CCOCC4)cc3C(=O)N([C@H](C)CO)C[C@H]2C)cc1 | 8.8 | 4.0
CCCNC(=O)Nc1ccc2c(c1)C(=O)N(C)C[C@@H](OC)[C@@H](C)CN(CCC)[C@H](C)CO2 | 4.7 | 1.6
CC(C)CC#Cc1ccc2c(c1)O[C@@H](CN(C)C(=O)c1ccccc1F)[C@H](C)CN([C@H](C)CO)S2(=O)=O | ? | .
C[C@H]1CN([C@@H](C)CO)C(=O)c2cccc(NC(=O)c3cnccn3)c2O[C@@H]1CN(C)S(=O)(=O)c1cn(C)cn1 | 14.3 | 12.0
C[C@H](CO)N1C[C@H](C)[C@@H](CN(C)Cc2ccc3c(c2)OCO3)Oc2c(NC(=O)C3CC3)cccc2C1=O | -7.3 | 2.8
C[C@H]1CCCCO[C@H](CN(C)C(=O)c2ccncc2)[C@@H](C)CN([C@@H](C)CO)C(=O)c2cc(NS(C)(=O)=O)ccc2O1 | 3.8 | 2.2
O=C(c1ccc(F)cc1)N1CC(=O)N2[C@H](C1)[C@@H](c1ccc(C#CC3CCCCC3)cc1)[C@@H]2CO | 18.3 | 4.3
C[C@H]1CN([C@@H](C)CO)C(=O)c2cc(-c3cccc(F)c3)cnc2O[C@H]1CN(C)Cc1ccccn1 | 7.2 | 8.8
CCC(=O)N(C)C[C@H]1Oc2cc(-c3ccc(C#N)cc3)ccc2S(=O)(=O)N([C@@H](C)CO)C[C@H]1C | 4.6 | 2.7
C[C@@H]1CN([C@H](C)CO)C(=O)c2c(c3ccccc3n2C)-c2ccccc2CO[C@@H]1CN(C)Cc1ccc2c(c1)OCO2 | ? | .
C/C=C/c1ccc([C@@H]2[C@@H](CO)N(C(=O)c3cnccn3)C23CN(C(=O)C2CCC2)C3)cc1 | -7.0 | -2.1
C[C@@H]1CN([C@@H](C)CO)C(=O)c2cc(C#CCc3ccccc3)cnc2O[C@@H]1CN(C)C(=O)Cc1cccnc1 | 15.4 | 4.3

A run of entries of the results above, as a working copy:
SMILES | Vaccinia stage | Vaccinia stage Venus
C[C@H]1CN([C@@H](C)CO)C(=O)c2cc(-c3cccc(F)c3)cnc2O[C@H]1CN(C)Cc1ccccn1 | 7.2 | 8.8
CCC(=O)N(C)C[C@H]1Oc2cc(-c3ccc(C#N)cc3)ccc2S(=O)(=O)N([C@@H](C)CO)C[C@H]1C | 4.6 | 2.7
C[C@@H]1CN([C@H](C)CO)C(=O)c2c(c3ccccc3n2C)-c2ccccc2CO[C@@H]1CN(C)Cc1ccc2c(c1)OCO2 | ? | .
C/C=C/c1ccc([C@@H]2[C@@H](CO)N(C(=O)c3cnccn3)C23CN(C(=O)C2CCC2)C3)cc1 | -7.0 | -2.1
C[C@@H]1CN([C@@H](C)CO)C(=O)c2cc(C#CCc3ccccc3)cnc2O[C@@H]1CN(C)C(=O)Cc1cccnc1 | 15.4 | 4.3

Later entries
SMILES | Vaccinia stage | Vaccinia stage Venus
CCCC#Cc1ccc2c(c1)O[C@H](CN(C)C(=O)c1cccnc1)[C@@H](C)CN([C@H](C)CO)S2(=O)=O | 8.5 | -8.9
CCNC(=O)[C@H]1[C@H](CO)[C@H]2Cn3c(ccc(/C=C/c4ccccc4)c3=O)[C@@H]1N2CC | -0.4 | -5.7
Cc1ccc(S(=O)(=O)N(C)C[C@H]2Oc3ccc(NC(=O)Cn4cnnn4)cc3C(=O)N([C@H](C)CO)C[C@@H]2C)cc1 | 1.4 | 6.9
O=C(C[C@@H]1C[C@H]2c3cc(NS(=O)(=O)c4ccc(F)cc4)ccc3O[C@H]2[C@@H](CO)O1)N1CCc2ccccc2C1 | -17.6 | -5.8
C[C@@H]1CN([C@H](C)CO)C(=O)c2cc(NC(=O)Nc3ccc(C(F)(F)F)cc3)ccc2O[C@@H]1CN(C)S(=O)(=O)c1ccc(F)cc1 | ? | .
COc1ccc(NC(=O)N(C)C[C@H]2Oc3ccc(NS(=O)(=O)c4ccc(F)cc4)cc3C(=O)N([C@H](C)CO)C[C@@H]2C)cc1 | 36.6 | 13.1
N#C[C@@H]1[C@H](c2ccc(-c3cccnc3)cc2)[C@@H](CO)N1C(=O)C1CC1 | 13.3 | 10.0
C[C@@H]1CN([C@@H](C)CO)C(=O)c2cc(NC(=O)NC3CCCCC3)ccc2O[C@@H](C)CCCCO[C@H]1CN(C)C(=O)Nc1cccc2ccccc12 | 17.0 | 9.4
C[C@H]1CN([C@@H](C)CO)S(=O)(=O)c2ccc(C3=CCCCC3)cc2O[C@@H]1CN(C)C(=O)C1CCC1 | ? | .
CCN(C[C@@H]1[C@H](c2ccccc2)[C@H](CO)N1C(=O)COC)S(C)(=O)=O | 17.2 | 18.9
CN(C)C(=O)C[C@@H]1C[C@H]2c3cc(NC(=O)Nc4ccc(F)cc4)ccc3O[C@H]2[C@@H](CO)O1 | 13.7 | 13.2
C[C@@H]1CCCCO[C@H](CN(C)C(=O)Nc2ccc3c(c2)OCO3)[C@@H](C)CN([C@@H](C)CO)C(=O)c2cc(NS(C)(=O)=O)ccc2O1 | 26.5 | 10.4
COc1ccc(-c2cn(CC[C@H]3CC[C@H](NS(=O)(=O)c4ccccc4C)[C@H](CO)O3)nn2)cc1 | -10.4 | -6.5
Cc1cccc(-c2ccc([C@H]3[C@H]4CN(C(=O)NC(C)C)CCCCN4[C@H]3CO)cc2)c1 | -1.7 | -30.3
C[C@H](NC(=O)C[C@@H]1C=C[C@H](NC(=O)C2CCC2)[C@H](CO)O1)c1ccccc1 | 0.2 | 16.0
CC(C)NC(=O)N[C@@H]1CC[C@@H](CC(=O)NCCN2CCCC2)O[C@H]1CO | 14.6 | 14.1

Assay outcomes from PubChem.
